# HCMV UL50-53 inh: cytomegalovirus nuclear egress complex inhibition | HTRF UL50-UL53 interaction, normalized percent inhibition | inhibition, % (concentration not given with the values) | 0.15% of 190,000 active | AID 1918969;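 active means both replicates at 50% or more, plus weaker picks with an unusually low signal ratio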;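 further: stock transfer was 100 nL into about 20 µL; 0% = negative control wells and 100% = wells with untagged competitor protein; inactives centre near -12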
# Sa growth 42C: blocks Staphylococcus aureus growth | AID 720641 | S. aureus RN4220 growth, OD600, 20 h, 42 °C; active compounds read low | 0.53% of 170,000 active | relative growth, % (concentration not given with the values);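 active means growth at 42 °C up to 50% and 20 or more points under that at 30 °C, or under 10% at both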;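 further: 300 nL library stock went into each well; scaled to the means of positive and negative controls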
# GIV Gai3 FP: inhibitors of GIV GBA-motif binding to rat Galpha-i3; P08753; Galpha-i3/FITC-GIV peptide fluorescence polarization, 90 min; active compounds read low; scaled: aluminum fluoride 0%, vehicle 100%; percent of control (FP), % (no concentration beside the values); 0.42% of 210,000 active; AID 1224905;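 active means replicate mean at 85% of control or lower, very high polarization wells dropped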;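 further: wells of about 15 µL received 100 nL stock; the first replicate is given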
# Target sequence (P08753 whole entry, looked up): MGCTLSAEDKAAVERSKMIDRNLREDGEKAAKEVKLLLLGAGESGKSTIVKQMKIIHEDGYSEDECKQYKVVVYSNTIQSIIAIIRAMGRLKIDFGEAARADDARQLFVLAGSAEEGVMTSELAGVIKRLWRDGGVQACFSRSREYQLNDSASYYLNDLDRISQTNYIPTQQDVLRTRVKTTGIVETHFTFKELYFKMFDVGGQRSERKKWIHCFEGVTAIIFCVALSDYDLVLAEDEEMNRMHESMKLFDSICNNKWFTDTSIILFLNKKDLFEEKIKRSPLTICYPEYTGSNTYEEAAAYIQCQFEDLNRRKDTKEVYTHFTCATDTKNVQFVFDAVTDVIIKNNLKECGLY
# Sa growth 42C second temp: also measured in Sa growth 42C; calls as there; relative growth, %; measured here: growth at 30 °C;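 optical density after 20 h as mean of two plates; 100% = untreated growth and lower means inhibition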
# * marks the source's active call; other numbers are inactive results; . = no result given; & = joins results of further samples.
[1] CC1(C)CC2CC(C)(CN2C(=O)CN2C(=O)c3ccccc3C2=O)C1 (stereo not given)
[2] NC(=O)NC(=O)CSc1nc(N)cc(=O)[nH]1
[3] CCOC(=O)c1cc(-c2ccc(S(=O)(=O)NCCCN3CCOCC3)s2)on1
[4] CCOc1ccccc1Nc1nc2ccccc2c2nncn12
[5] C=CCn1c(NCc2ccccc2OC)nc2ccccc21
[6] O=C1CCC(=O)N1CN1CCN(c2ccccc2)CC1
[7] CCOC(=O)c1ccc2c(c1)[nH]c(=S)n2CC
[8] CCc1ccc(-n2nc3cc(C)c(NC(=O)c4ccc5c(c4)OCCO5)cc3n2)cc1
assay / compound	1	2	3	4	5	6	7	8
HCMV UL50-53 inh	.	-25	-101	-2	-16	-19	-5	-22
Sa growth 42C	90	78	94	109	100	102	110	.
Sa growth 42C second temp	83	85	85	93	79	92	74	.
GIV Gai3 FP	100	.	103	106	104	106	102	107

[9] O=C(Nc1cccc(-c2nc3cccnc3s2)c1)C1CC1
[10] Cc1cccc(NC(=O)CSc2nc3c([nH]c4ccccc43)c(=O)n2C)c1C
[11] c1nc(NN2CCCCC2)c2sccc2n1
[12] CC(C)(O)C#CC(O)c1cccs1 (stereo not given)
[13] CCOc1ccc(-n2cc(-c3ccccc3)c3c(NCc4ccccc4)ncnc32)cc1
[14] Cc1cn2c(=O)cc(COC(=O)C(C)Oc3ccccc3)nc2s1 (stereo not given)
[15] CN(C)c1ccc(CNS(=O)(=O)c2csc(C(N)=O)c2)cc1
[16] COc1cccc(C=Nc2cccc3c(=O)[nH][nH]c(=O)c23)c1O
assay / compound	9	10	11	12	13	14	15	16
HCMV UL50-53 inh	.	.	-10	-6	.	.	.	-16
Sa growth 42C	103	104	114	88	103	82	111	93
Sa growth 42C second temp	82	87	85	90	98	91	88	110
GIV Gai3 FP	102	108	111	99	102	102	102	99

[17] CN1CCN(CCCNC(=O)c2cc3ccc4cccnc4c3[nH]2)CC1
[18] CCC(C)NC(=O)c1cn(CC)c(=O)c2cc(OC)c(OC)cc12 (stereo not given)
[19] COc1ccc(NC(=O)CN2C(=O)CCc3cc(S(=O)(=O)N4CCOCC4)ccc32)cc1Cl
[20] O=C(C1COc2ccccc2O1)N(Cc1cccnc1)c1nc2ccc(F)cc2s1 (stereo not given)
[21] Cc1ccc(C(=O)CCC(=O)Nc2ccc(C)cc2C)cc1
[22] COc1ccc(C2CC(=O)c3cnc4c(-c5ccccc5)c(C)nn4c3C2)c(OC)c1 (stereo not given)
[23] COc1ccc2c(c1)c1nc3cc4ccccc4cc3nc1n2Cc1ccccc1
[24] C=C(C)Cn1c(SCC(=C)Br)nc2sc3c(c2c1=O)CC(C)(C)OC3
assay / compound	17	18	19	20	21	22	23	24
HCMV UL50-53 inh	-3	.	.	.	.	-4&-25	-4	-21
Sa growth 42C	.	108	94	133	104	103	.	.
Sa growth 42C second temp	.	90	85	87	94	85	.	.
GIV Gai3 FP	98	100	103	98	107	103&98	102	106

[25] CCOC(=O)N1CCN(Cc2nc3cc(NC(=O)c4ccc(F)cc4)ccc3n2C(C)C)CC1
[26] Cc1c(Cl)ccc2sc(NC(=O)c3ccc(S(=O)(=O)N4CCCC4)cc3)nc12
[27] Cc1ccc(C)c(N2CCN(C(=O)CCc3nnc4n(Cc5ccccc5)c(=O)c5ccccc5n34)CC2)c1
[28] Clc1nc2ccc3nsnc3c2nc1Cl
[29] CNC(=S)N/N=C/c1cc(OC)c(OC)cc1OC
[30] CN1/C(=C/C(=O)c2cccs2)C(C)(C)c2ccccc21
[31] CCc1cccc(NS(=O)(=O)c2ccc3c(c2)n(C)c(=O)c(=O)n3C)c1
[32] C=CCNC(=O)N1CCc2[nH]c3ccc(F)cc3c2C1
assay / compound	25	26	27	28	29	30	31	32
HCMV UL50-53 inh	-2	.	-11	-58	-39	-22	10	-36
Sa growth 42C	105	71	.	94	100	74	98	90
Sa growth 42C second temp	91	91	.	83	91	67	89	79
GIV Gai3 FP	100	98	103	.	.	.	99	85*

[33] CCCCn1c(C2CC(=O)N(c3ccccc3OC)C2)nc2ccccc21 (stereo not given)
[34] CCOC(=O)N1CCC2(CC1)Oc1ccccc1C1CC(c3ccccc3)=NN12 (stereo not given)
[35] O=C(O)CCCc1c(-c2ccccn2)[nH]c2ccc(F)cc12
[36] O=c1[nH]c(O)c(N=Nc2ccccc2)s1
[37] Cc1ccc(OCCSc2nc3ccc(NC(=O)c4ccco4)cc3s2)cc1
[38] COc1ccc(C(=O)O/N=C(/N)C2COc3ccccc3O2)cc1 (stereo not given)
[39] CCOC(=O)c1ccc(CNCc2ccccc2)cc1
[40] CC1(C)CC(=O)c2ccc(OCC#N)cc2O1
assay / compound	33	34	35	36	37	38	39	40
HCMV UL50-53 inh	-1	-34	-37	0	-6	-18	.	6
Sa growth 42C	105	107	104	97	107	95	73	113
Sa growth 42C second temp	91	80	68	94	98	84	86	93
GIV Gai3 FP	.	106	93	104	98	102	99	105

# Complete entries, looked up by structure.
# `Cc1ccc(OCCSc2nc3ccc(NC(=O)c4ccco4)cc3s2)cc1` as listed: HCMV UL50-53 inh: -6; Sa growth 42C: 107; Sa growth 42C second temp: 98; GIV Gai3 FP: 98
# `COc1ccc(C(=O)O/N=C(/N)C2COc3ccccc3O2)cc1` (stereo not given) as listed: HCMV UL50-53 inh: -18; Sa growth 42C: 95; Sa growth 42C second temp: 84; GIV Gai3 FP: 102
# `CC1(C)CC(=O)c2ccc(OCC#N)cc2O1` as listed: HCMV UL50-53 inh: 6; Sa growth 42C: 113; Sa growth 42C second temp: 93; GIV Gai3 FP: 105

# More entries.
[41] O=C(CSc1nnc2ccccn12)Nc1ccc2c(c1)OC(F)(F)O2
[42] Cc1ccc(C(=O)Nc2nc3ccccc3c(=O)s2)cc1
[43] O=S(=O)(c1ccc2c(c1)OCCO2)N1CCN(c2ncccn2)CC1
[44] Cc1cc(C)c(NC(=O)c2ccncc2)c(C)c1
[45] NC(=O)c1ccccc1C(=O)c1ccccc1
[46] CCOC(=O)c1cnc2c(C)cc(C)cc2c1Nc1ccc(S(=O)(=O)Nc2ncccn2)cc1
[47] Nc1c(N2CCOCC2)ccc2nsnc12
[48] CCN(CC)c1ccc(NC(=O)COCc2cc(-c3ccc4c(c3)OCO4)on2)c(C)c1
assay / compound	41	42	43	44	45	46	47	48
HCMV UL50-53 inh	-10	18	-4	0	1	.	-85	.
Sa growth 42C	104	95	101	104	79	100	93	95
Sa growth 42C second temp	93	92	74	96	102	84	94	95
GIV Gai3 FP	.	104	96	.	.	102	92	101

[49] O=C(N=C1c2ccccc2CN1c1ncccn1)c1cccc(F)c1
[50] COc1ccc(Nc2nc(N)nc(CSC(=S)N(C)C3CCCCC3)n2)cc1
[51] O=C(Nc1ccc(C(F)(F)F)cn1)c1cccnc1Oc1ccc(Cl)cc1
[52] O=C(NCCc1ccc(Cl)cc1)C(=O)NCC(c1ccco1)S(=O)(=O)c1ccccc1 (stereo not given)
[53] C=C(C)Cn1c(SCC(=O)NN)nc2ccccc2c1=O
[54] CCOC(=O)Nc1ccc(Cl)cc1
[55] CC(C)CCNc1ccc(-c2ccc(Cl)cc2)nn1
[56] c1ccc(CN2CCN(Cc3ccccc3)C2c2ccco2)cc1
assay / compound	49	50	51	52	53	54	55	56
HCMV UL50-53 inh	-6	.	-4	.	.	10	-13	-19
Sa growth 42C	98	118	99	96	106	103	111	104
Sa growth 42C second temp	90	83	85	101	80	103	93	91
GIV Gai3 FP	.	106	107	102	101	.	101	.

[57] CCOc1ccccc1C(=O)Nc1nc(SCC)ns1
[58] CCn1c(C(=O)N2CCC(C(=O)NCc3ccccc3Br)CC2)cc2occc21
[59] Cc1cc(C)nc(SCCSc2nc(C)cc(C)n2)n1
[60] C/C(=N\O)C(C)(C)Nc1ccc(Br)cc1
[61] Cc1ccc(C)c(-n2c3nc(=O)[nH]c(=O)c-3cc3c(C)nn(-c4ccccc4)c32)c1
[62] Cc1ccc(N2C(=O)CCSC23C(=O)N(Cc2ccc(F)cc2)c2ccccc23)cc1 (stereo not given)
[63] Cn1c(CNC(=O)CSc2nc(-c3cccc(Cl)c3)nc3cc(=O)[nH]n23)nc2ccccc21
[64] CC1CCCCN1C(=S)NC(=O)c1ccco1 (stereo not given)
assay / compound	57	58	59	60	61	62	63	64
HCMV UL50-53 inh	-15	-31	-8	11	3	.	.	-32
Sa growth 42C	.	.	94	110	98	87	124	80
Sa growth 42C second temp	.	.	87	90	93	88	101	92
GIV Gai3 FP	98	96	101	107	104	103	108	.

[65] Cc1ccc(CN2CCC3(CC2)N=C(c2ccc(Br)cc2)C(=O)N3)c(C)c1
[66] Cc1noc(C)c1CCNC(=O)c1ccc(Cl)c(-n2c(C)nc3cccnc32)c1
[67] Cc1nn2c3ccccc3n(C)c2c1C(=S)Nc1ccccc1
[68] CCSCCOC(=O)C1=C(C)NC2=C(C(=O)CC(c3ccccc3)C2)C1c1ccc([N+](=O)[O-])cc1 (stereo not given)
[69] CCCN(CCC)C(=S)Nc1ccccc1
[70] CS(=O)(=O)N(Cc1ccccc1)c1ccccc1C(=O)NC1CCCC1
[71] COc1cc(C(=O)NCCC(=O)NC2CCCc3ccccc32)cc(OC)c1OC (stereo not given)
[72] CC1CN(c2ccccc2)c2nc3c(c(=O)n(C)c(=O)n3C)n2C1 (stereo not given)
assay / compound	65	66	67	68	69	70	71	72
HCMV UL50-53 inh	-3	-4	.	-17	-3	3	.	-14
Sa growth 42C	.	.	92	.	101	98	108	98
Sa growth 42C second temp	.	.	82	.	97	91	95	80
GIV Gai3 FP	99	112	106	105	105	.	101	102

[73] COC(=O)c1ccc(/C=C(\C#N)C(N)=S)cc1
[74] COc1ccc2nc(NNC(=O)c3ccccc3)sc2c1
[75] Cc1ccc(C)c(Cn2c(C)nc3c(sc(=S)n3-c3ccccc3)c2=O)c1
[76] COc1cccc(N2CCN(C(=O)Cn3ncc4c3-c3ccccc3OC4)CC2)c1
[77] COc1ccc(/C=C/c2onc(C)c2S(=O)(=O)N2CCC(C(=O)N3CCC(C)CC3)CC2)cc1
[78] COc1cccc(NS(=O)(=O)c2ccc3[nH]cc(C(=O)NCCc4ccccc4)c(=O)c3c2)c1
[79] COc1ccc(N(C)C(=O)c2cc3c(s2)-c2ccccc2OC3)cc1
[80] CC(C)C(NC(=O)CCc1ccccc1)C(C)C
assay / compound	73	74	75	76	77	78	79	80
HCMV UL50-53 inh	-9	16	.	-32	.	-6	-29	-4
Sa growth 42C	104	94	107	97	128	104	100	87
Sa growth 42C second temp	81	90	90	85	96	87	81	89
GIV Gai3 FP	103	100	102	101	112	101	103	110

# Reprinted at random: two compounds from above
[80] CC(C)C(NC(=O)CCc1ccccc1)C(C)C
[74] COc1ccc2nc(NNC(=O)c3ccccc3)sc2c1
assay / compound	80	74
HCMV UL50-53 inh	-4	16
Sa growth 42C	87	94
Sa growth 42C second temp	89	90
GIV Gai3 FP	110	100

# The listing picks up, repeating the two entries before the break.
[79] COc1ccc(N(C)C(=O)c2cc3c(s2)-c2ccccc2OC3)cc1
[80] CC(C)C(NC(=O)CCc1ccccc1)C(C)C
[81] Cc1cccc(NC(=O)C(=O)NCC(c2cccnc2)N2CCc3ccccc3C2)c1C (stereo not given)
[82] CCOC(=O)c1noc2c1C1=NCCN1C=N2
[83] O=C(NC1CCCc2ccccc21)C1COc2ccccc2O1 (stereo not given)
[84] Cc1ccc(C)c(N2CCN(C(=O)C3CCCN(C(=O)c4cc(-c5cccnc5)n[nH]4)C3)CC2)c1 (stereo not given)
[85] CN(Cc1cc(=O)[nH]c2ccccc12)C(=O)c1ccc(F)cc1
[86] CN(C)c1ccc(CC2C(=O)Nc3ccc(Cl)cc32)cc1 (stereo not given)
[87] Cc1nc2ccc(N=NC3=C(O)CC(C)(C)CC3=O)cc2s1
[88] Cc1ccccc1-c1nnn(-c2nc(CN3CCOCC3)nc3sc4c(c23)CCCC4)n1
[89] Clc1ccc2ncnc(-c3ccccc3)c2c1
[90] CC1CC1c1ccc(CCC(=O)O)o1 (stereo not given)
assay / compound	79	80	81	82	83	84	85	86	87	88	89	90
HCMV UL50-53 inh	-29	-4	-23	-15	-30	-16	-8	-22	-103	-29	-68	-15
Sa growth 42C	100	87	105	87	111	.	.	.	89	85	99	96
Sa growth 42C second temp	81	89	94	84	81	.	.	.	69	90	67	90
GIV Gai3 FP	103	110	109	104	.	99	99	109	97	.	100	.

# Bioassay records deposited in PubChem by ICCB-Longwood Screening Facility, Harvard Medical School.
